# Screening results deposited in PubChem by several laboratories.
# FGF22 binding – shifts melting point of recombinant human FGF22; Q9HCT0; recombinant FGF22 thermal shift, SYPRO orange fluorescence; percent of sucrose octasulfate shift, DMSO zero; calls only at 9.99 µM; actives 1.5% (n = 340,000);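 active means melting point raised past a set limit in the mean and every replicate; three in four hits are not shown here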
# LANA-H2A inh – blocks KSHV LANA binding to histone H2A/H2B; Q9QR71; cell-free LANA-H2A/H2B peptide, fluorescence polarization; inhibition, % (concentration not given with the values); actives 0.6% (n = 320,000); in the data active means inhibition mostly above about 10%, no sharp cut-off; inactive means mostly below about 6.7%;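 further: stock transfer was 7.5 nL into about 10 µL; 0% = median of vehicle wells and 100% = median of positive control wells; one replicate is shown; the record names a cut of 25% in any replicate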
# Ecoli growth – inhibitors of Escherichia coli growth | OD600, 23 h; hits give low values | OD600 absorbance (test concentration not listed) | actives 0.21% (n = 330,000) | AID 1053175;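 active means OD600 absorbance below the run mean of sample wells minus 3.6 SD, in any replicate, cut at about 0.56 in these data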;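 further: stock transfer was 300 nL into about 60 µL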
# HNF4A DNA FP – change in binding of human HNF4 alpha to DNA; P41235; HNF4a-FITC DNA binding, fluorescence polarization, 1 h; activity change, % at 10 µM; actives 0.3% (n = 360,000); in the data active means activity change above about 30%, passing the limit was not always enough;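 further: controls were the assay level and a saturating level of protein; the project sought stronger binding though the title names inhibitors; some compounds called inactive have numbers as strong as hits; positive values seem to mean higher polarization but the record does not say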
# Target sequence (P41235 whole entry, looked up): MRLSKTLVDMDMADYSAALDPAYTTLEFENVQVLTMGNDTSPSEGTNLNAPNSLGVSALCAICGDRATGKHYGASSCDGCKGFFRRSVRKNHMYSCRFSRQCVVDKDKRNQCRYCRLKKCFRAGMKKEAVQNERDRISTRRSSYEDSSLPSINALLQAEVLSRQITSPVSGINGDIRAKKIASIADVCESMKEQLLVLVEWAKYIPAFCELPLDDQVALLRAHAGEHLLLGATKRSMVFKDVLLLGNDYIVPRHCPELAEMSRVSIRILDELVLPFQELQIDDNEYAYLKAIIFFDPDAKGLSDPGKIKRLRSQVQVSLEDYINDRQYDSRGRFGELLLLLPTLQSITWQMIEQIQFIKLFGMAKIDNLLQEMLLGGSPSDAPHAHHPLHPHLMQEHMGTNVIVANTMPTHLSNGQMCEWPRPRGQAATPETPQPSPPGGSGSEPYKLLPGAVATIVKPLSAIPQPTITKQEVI
# Beta2AR agonist – human beta-2 adrenergic receptor agonism by FAP | actives 0.43% (n = 340,000) | Am2.2-beta2AR cells, FAP receptor internalization, flow cytometry; reference of the scale not given here | P07550 | response, % (no concentration beside the values);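 active means response above a set limit, near 3 SD of response in nonfluorescent compounds, cut at about 42% in these data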;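 further: stock transfer was 100 nL into about 11 µL; a reference agonist was the positive control; negative values mostly stem from fluorescent compounds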
# Target sequence (P07550 whole entry, looked up): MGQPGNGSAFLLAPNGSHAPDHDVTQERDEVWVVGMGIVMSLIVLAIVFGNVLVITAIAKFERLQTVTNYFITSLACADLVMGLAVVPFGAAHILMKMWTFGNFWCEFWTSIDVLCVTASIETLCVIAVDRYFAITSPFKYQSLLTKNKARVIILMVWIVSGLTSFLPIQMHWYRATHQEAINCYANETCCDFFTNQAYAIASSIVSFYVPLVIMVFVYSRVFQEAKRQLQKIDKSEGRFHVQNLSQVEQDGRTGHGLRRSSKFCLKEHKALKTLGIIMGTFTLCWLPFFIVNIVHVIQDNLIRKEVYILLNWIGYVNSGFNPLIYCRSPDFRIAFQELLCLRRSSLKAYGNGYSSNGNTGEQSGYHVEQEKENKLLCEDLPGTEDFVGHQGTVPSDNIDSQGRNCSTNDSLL
# ALR H2O2 inh – inhibitors of human sulfhydryl oxidase ALR | P55789 | purified ALR, DTT oxidation, H2O2 HRP-luminol luminescence | inhibition, % (no concentration beside the values) | actives 3.8% (n = 290,000);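 active means mean and each replicate at 75% or more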;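 further: stock transfer was 7.5 nL into about 7.5 µL; 0% = neutral wells and 100% = wells with inactivated enzyme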
# Target sequence (P55789 whole entry, looked up): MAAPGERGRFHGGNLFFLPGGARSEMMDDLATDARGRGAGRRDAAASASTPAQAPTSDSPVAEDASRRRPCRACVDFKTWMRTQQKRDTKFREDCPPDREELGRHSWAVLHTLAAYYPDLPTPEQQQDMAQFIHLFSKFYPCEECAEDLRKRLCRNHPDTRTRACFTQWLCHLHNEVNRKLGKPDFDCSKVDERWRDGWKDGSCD
# UCH37 inh – human UCH37 deubiquitinating enzyme inhibition. actives 0.33% (n = 330,000). inhibition, % (test concentration not listed). purified proteasome/UCH37, Ub-AMC cleavage fluorescence. Q9Y5K5;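 active means mean of two replicates above 20%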;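 further: 0% = compound-free wells with enzyme and 100% = wells lacking proteasome; stock transfer was 100 nL into about 20 µL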
#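 Schedule: 30 min plus 25 min, room temperature / Material: human UCH37 within purified proteasomes / Technique: AMC fluorescence intensity at 355/460 nm / Buffer or medium: pH 7.4 Tris-HCl (50 mM) with ovalbumin, ATP-MgCl2, DTT / Controls: wells without proteasome as full block, compound-free enzyme plus substrate as uninhibited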
# An asterisk follows results filed as active; i = inactive; x = not tested or not shown; & = joins results of further samples.
SMILES,FGF22 binding,LANA-H2A inh,Ecoli growth,HNF4A DNA FP,Beta2AR agonist,ALR H2O2 inh,UCH37 inh
Cc1noc(C)c1COC(=O)c1cc(C)n(-c2ccccc2)c1C,x,-0.2,0.73,1.3,1,x,2.2
O=C(NCCc1ccccc1)c1cc(-c2ccco2)on1,i,-2.6,0.76,4.7,-9,x,-0.1
CC1CC1C(=O)OCC(=O)Nc1cccc(S(=O)(=O)NC2=NCCCCC2)c1 (stereo unspecified),i,-1.8,0.65,7.3,3,-2,1.3
CCSc1nnc(NC(=O)c2nc(-c3ccccc3)n(-c3ccccc3)n2)s1,x,4.1,0.72,2.5,-17,2,4.8
CC(C)SCc1cc(N2CCCC2)nc(-c2ccccc2)n1,i,0.0,0.71,4.8,-10,-1,6.4
Cc1cc(C)cc(NC(=O)CCNS(=O)(=O)c2ccc3c(c2)oc(=O)n3C)c1,x,-1.6,0.72,-1.8,3,x,4.9
COCCn1c(=NC(=O)c2cccs2)sc2cc(NC(C)=O)ccc21,x,0.6,0.72,0.1,-15,x,-21
Cc1nc(=S)n(-c2ccccc2)[nH]1,x,6.7,0.78,-0.1,-1,47,-0.8
COc1ccccc1CN=Cc1[nH]c2ccc(Br)c(Cl)c2c1O,x,-1.2,0.71,20,-59,0,3.2
Cc1nc2c(C)cccn2c1/C(O)=C1\C(=O)C(=O)N(CCN(C)C)C1c1cccs1 (stereo unspecified),i,x,0.67,10,-52,x,1.5
CCOC(=O)C(C)n1cnc2scc(-c3ccc(C)c(C)c3)c2c1=O (stereo unspecified),i,2.1,0.69,2.5,4,-1,1.8
O=C(NCCN1CCCC1)c1ccc(Cl)cc1Cl,i,-0.1,0.66,-0.3,-1,-11,0.4
CN(C)N1C(N)=C(C#N)C(c2ccccc2Cl)C2=C1CCCC2=O (stereo unspecified),i,2.7,0.71,-1.8,-1,-74,3.9
COc1ccc(C(=O)c2c3ccccc3[n+]([O-])n2CCCN)cc1,i,-0.1,0.68,-5.3&0.8,-15&-3,x,-0.7
CC1=NNC(=O)/C1=C\c1cn(-c2ccccc2)nc1-c1ccccc1,i,10,0.66,-0.1,82*,1,3.5
Oc1cccc(/C=N/Nc2cc(N3CCCC3)nc(N3CCCC3)n2)c1,x,1.0,x,1.3,11,-17,x
CCCC(=O)NC(c1ccc(OCC)cc1)c1ccc(OC)c(OC)c1 (stereo unspecified),i,1.2,0.65,-1.3,2,-6,4.6
CCc1nonc1NC(=O)c1oc2ccccc2c1C,i,-2.4,0.74,1.6,8,-5,4.7
O=C(c1ccc(Cn2cc([N+](=O)[O-])cn2)o1)N1N=C(C(F)F)CC1(O)C(F)F (stereo unspecified),i,0.4,0.67,-4.4,8,-1,3.9
O=C(CCn1c(=O)sc2ccccc21)Nc1ccon1,i,-3.0,0.67,2.8,-19,-7,-0.8
CC(=O)N1CCc2cc(Br)cc(S(=O)(=O)NCc3ccc(Cl)cc3)c21,i,-2.4,0.66,-0.9,-10,-5,1.9
CCOc1cc(/C=N/NC(=O)C(=O)NCC2CCCO2)ccc1OCC(=O)N1CCOCC1 (stereo unspecified),i,-5.9,x,-2.8,0,2,x
CC1OC(Oc2c(-c3cc(O)c(O)c(O)c3)oc3cc(O)cc(O)c3c2=O)C(O)C(O)C1O (stereo unspecified),i,x,0.68&0.78,-2.6,6,x,11
COc1ccc(OC)c(/C=C/C(=O)Nc2ccc3c(c2)CCC3)c1,i,-11,0.7,0.7,4,-1,-9.6
O=C(CSc1cn(CCNC(=O)c2cccs2)c2ccccc12)NCC1CCCO1 (stereo unspecified),i,-5.1,0.78,4.4,13,-5,5.9
# The results go on:
SMILES,FGF22 binding,LANA-H2A inh,Ecoli growth,HNF4A DNA FP,Beta2AR agonist,ALR H2O2 inh,UCH37 inh
CCC1CCCCN1C(=O)CSc1nnc(-c2c[nH]c3ccccc23)o1 (stereo unspecified),x,0.6,0.66,-1.4,-6,-3,2.1
CN(CC(=O)Nc1ccc2c(c1)OCCO2)CC(=O)Nc1ccc(F)c(F)c1F,i,-6.2,0.69,-1.8,-3,-1,5.8
CCCCNC(=O)Cn1cnc2c(cnn2-c2ccc(C)cc2)c1=O,i,0.5,0.72,1.8,-8,-22,0.1
Cc1nn(CC(=O)N2CCC(C)CC2)c(=O)c2nn(-c3ccccc3)c(C)c12,i,1.0,0.64,2.6,-5,x,-0.4
CC(OC(=O)c1cccs1)C(=O)NCc1ccccc1 (stereo unspecified),x,1.9,0.69,-0.7,-4,x,0.8
C#CCOCCOCCOCCNc1nc(N2CCN(C(=O)Cn3cc(CCO)nn3)CC2)nc(N2CCN(C(=O)Cn3cc(CCO)nn3)CC2)n1,i,x,0.66,2.1,-6,x,1.8
CCOC(=O)CNC(=O)/C=C/c1ccc2c(c1)OCO2,x,5.6,0.67,4.2,2,-2,-54
Cc1ccc2cc3c(nc2c1)N(Cc1ccco1)CC3,x,2.9,0.73,-1.0,0,-1,-34
Cn1cnc([N+](=O)[O-])c1Sc1ccc(Br)cc1,i,1.8,0.69,-2.4,2,98*,1.7
COc1cccc(N=Nc2c(C)[nH]n(-c3ccccc3)c2=O)c1,i,-5.7,0.73,-0.4,-3,-1,6.5
COc1ccc2[nH]cc(C(=O)CN3CCN(C(=O)c4ccco4)CC3)c2c1,x,0.1,0.62,0.6,2,1,1.0
O=[N+]([O-])c1ccc(/C=N/n2c(-c3cccnc3)n[nH]c2=S)cc1,x,-3.1,x,1.3,-10,-3,x
CC(=O)N/C(=C/c1ccc(OS(=O)(=O)c2ccc(C)cc2)cc1)C(=O)NCCCO,i,2.6,0.66,-1.7,0,-1,7.4
CCN(CC)C(=O)CSc1nnc(-c2cccnc2)n1CCc1ccccc1,x,-6.2,0.67,-1.3,-4,-9,3.6
CN(Cc1ccco1)C(=O)C1CCC(=O)N(CCc2cccc(F)c2)C1 (stereo unspecified),i,5.7,0.7,-2.6,4,3,0.8
O=c1c(Cl)c(NCc2ccccc2Cl)cnn1C12CC3CC(CC(C3)C1)C2,i,-4.0,0.65,-1.8,2,-6,6.2
CC(c1nc2ccccc2c(=O)[nH]1)N1CCOCC1 (stereo unspecified),i,1.2,0.66,-1.6,1,-7,-1.6
CC(=O)c1c(C)[nH]c(C(=O)OCC(=O)Nc2c(C)n(C)n(-c3ccccc3)c2=O)c1C,i,x,0.71,0.4,-7,x,2.6
CCCCC#Cc1cncc(C(=O)NN)c1,i,1.3,0.67,4.7,5,-2,2.8
COCCn1c(SCC#N)nnc1-c1ccccc1,x,1.7,0.64,-2.4,3,-13,6.7
C/C(=N\NC(=O)c1cc(-c2cccs2)nc2ccccc12)c1ccccn1,i,1.0,x,4.2,-11,-17,x
COc1cccc(-c2sc3ccc(OC)cc3c2-c2ccc(OCCN(C)C)cc2)c1,i,-3.0,x,4.9,23,-8,x
O=C(COc1ccc(Br)cc1)N(Cc1ccccc1)c1ccccn1,x,x,0.66,1.8,-7,x,2.8
Cc1ccc(CNc2nc(C)cs2)cc1,i,-1.3,0.64,1.2,14,6,1.8
CN1C[C@H]2CON(C)[C@H]2C[C@H]1c1cccc(N2CCOCC2)c1,i,x,x,-1.8,6,x,x

# Part of the list above in order of count of non-hydrogen atoms, high to low.
SMILES,FGF22 binding,LANA-H2A inh,Ecoli growth,HNF4A DNA FP,Beta2AR agonist,ALR H2O2 inh,UCH37 inh
COc1ccc2[nH]cc(C(=O)CN3CCN(C(=O)c4ccco4)CC3)c2c1,x,0.1,0.62,0.6,2,1,1.0
CN(Cc1ccco1)C(=O)C1CCC(=O)N(CCc2cccc(F)c2)C1 (stereo unspecified),i,5.7,0.7,-2.6,4,3,0.8
CC(c1nc2ccccc2c(=O)[nH]1)N1CCOCC1 (stereo unspecified),i,1.2,0.66,-1.6,1,-7,-1.6

# The results go on:
SMILES,FGF22 binding,LANA-H2A inh,Ecoli growth,HNF4A DNA FP,Beta2AR agonist,ALR H2O2 inh,UCH37 inh
CC1CCC(NC(=O)CCS(=O)(=O)c2ccc3c(c2)NC(=O)C(C)S3)CC1 (stereo unspecified),i,-9.5,0.69,-0.7,-5,1,2.4
Cn1c(CC(=O)Nc2ccccc2F)nnc1SCC(=O)NC1CCCC1,i,4.2,0.7,-2.0,-3,-2,4.9
N=c1sccn1CC(=O)Nc1ccccc1-c1ccccc1,x,5.9,0.69,0.5,9,-10,0.3
CCOCCCNC(=O)c1cn(C)c(=O)c2cc(OC)c(OC)cc12,x,-3.0,0.69,2.7,-28,-7,-0.9
Oc1ccc(C[C@H]2CNC(=S)N2CC2CCCN2C[C@H](Cc2ccc(O)cc2)N2C[C@H](Cc3ccc(O)cc3)N(CC3CCCCC3)C2=S)cc1 (stereo partly specified),i,x,x,-2.4,31,x,x
CCOC(=O)CNC(=O)CSc1nc(N)cc(N)n1,x,3.4,0.72,-0.7,-2,-7,-0.2
FC(F)(F)c1cccc(Nc2nc(N3CCCC3)nc(N3CCCC3)n2)c1,i,0.4,0.73,-3.5,6,-1,2.3
O=C(O)COc1ccccc1C1C2C(=O)N(c3ccc(F)cc3)C(=O)C2ON1c1ccccc1 (stereo unspecified),x,-0.9,0.75,-0.5,4,x,5.2
COc1ccc(C)cc1S(=O)(=O)NC1CC1,i,7.3,0.65,-0.5,6,x,4.7
Cc1c(Cl)cccc1NC(=S)NCCc1ccc(C(F)(F)F)cc1,i,0.4,0.68,-1.0,9,x,0.2
CCOc1ccc(Br)cc1S(=O)(=O)N1CC(C)OC(C)C1 (stereo unspecified),x,6.7,0.7,3.9,-13,0,4.3
O=C(Cn1cnc2c(oc3ccccc32)c1=O)c1ccccc1,x,-2.6,0.71,-0.8,-7,-9,1.4
CCNC(=S)N(CCO)Cc1cc2cc3c(cc2[nH]c1=O)OCO3,i,0.0,0.7,1.0,-6,-8,-154
O=C(Nc1ccccc1C(=O)Nc1ccccc1)c1ccccc1Br,i,-2.4,0.69,1.0,2,-2,4.2
CCN(C(=O)c1cnc(N2CCN(c3ncccn3)CC2)c2ccccc12)c1cccc(Cl)c1,x,-0.1,0.75,-1.2,11,-33,-3.4
CC(=O)Nc1cccc(Oc2ccc3c(c2)C(=O)N(CCC(=O)O)C3=O)c1,x,-0.1,0.68,-0.1,-4,3,4.4
Cc1ccc(S(=O)(=O)NC(=O)c2ccccc2F)cc1,i,0.0,0.69,0.2,2,-9,1.6
Cc1cccc(Cl)c1NC(=O)N1CCCN(c2ncccc2[N+](=O)[O-])CC1,i,0.7,0.68,0.0,-2,-6,3.6
Cc1ccc(S(=O)(=O)N2CCOCC2)cc1NC(=O)COC(=O)CNC(=O)c1ccccc1,x,-11,0.7,0.1,-4,0,1.8
CCc1ccccc1N(CC(=O)NC1CCCCC1)C(=O)CCCC(=O)Nc1ccccn1,i,-2.6,0.7,2.3,-3,x,2.8
COc1cc(NC(=O)CS(=O)(=O)c2ccccc2)cc(OC)c1OC,x,-11,0.72,-3.1,-11,-3,-1.3
COc1cc(SC)ccc1C(=O)Nc1nccs1,i,2.0,0.62,4.4,-6,-9,5.7
CC(=O)c1sc(NC(=O)CCN2C(=O)C3CC=CCC3C2=O)nc1-c1ccccc1 (stereo unspecified),i,-1.8,0.7,0.0,7,2,8.4
C=CCn1c(SCC(=O)NCc2ccc3c(c2)OCO3)nc2scc(-c3ccccc3)c2c1=O,x,2.7,0.74,2.6,5,-2,0.6
S=C1NCN(Cc2ccco2)CN1Cc1ccco1,i,-1.3,0.65,1.1,6,x,1.9
O=C(CCC1CCCN(Cc2ccc(O)c(Cl)c2)C1)NCc1ccccc1F (stereo unspecified),x,2.2,0.67,2.6,-4,11,-1.0
CC[n+]1ccc(C(=O)NCc2ccccc2)cc1,i,0.7,0.67,1.9,-1,-6,-0.3
Cc1ccc(CCNC(=O)C2CC(=O)N(CCc3ccccc3)C2)cc1 (stereo unspecified),i,-4.9,0.69,-3.1,-2,-14,3.4
CCCS(=O)(=O)N1CCN(C2CCC(C)CC2)CC1 (stereo unspecified),i,1.0,0.67,-4.4,-2,-1,3.1

# Some of the compounds tested; rates above refer to the full screens.
